UCH37 inh – human UCH37 deubiquitinating enzyme inhibition; purified proteasome/UCH37, Ub-AMC cleavage fluorescence; inhibition, % (test concentration not listed); hit rate 0.33% among 330,000;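 active = mean of two replicates above 20%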;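 also: 0% = compound-free wells with enzyme and 100% = wells lacking proteasome; stock transfer was 100 nL into about 20 µL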
Target sequence (Q9Y5K5 whole entry, looked up): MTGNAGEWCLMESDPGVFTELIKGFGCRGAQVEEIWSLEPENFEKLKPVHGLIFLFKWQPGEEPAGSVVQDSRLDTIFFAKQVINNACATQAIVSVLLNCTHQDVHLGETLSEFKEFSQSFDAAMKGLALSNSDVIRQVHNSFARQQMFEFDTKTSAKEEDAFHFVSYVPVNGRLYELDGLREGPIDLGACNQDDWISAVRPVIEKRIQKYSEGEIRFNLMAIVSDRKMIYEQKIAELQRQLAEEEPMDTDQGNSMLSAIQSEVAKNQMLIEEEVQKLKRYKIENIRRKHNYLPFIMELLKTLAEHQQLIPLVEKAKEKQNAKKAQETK
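Reagent: Ub-AMC substrate; assay system: Proteasome-associated human UCH37 deubiquitinase; controls: no-proteasome and no-compound wells; read-out: % inhibition of Ub-AMC cleavage fluorescence; timing: 30 min preincubation with enzyme, 25 min cleavage at room temperature; signal: AMC fluorescence from Ub-AMC cleavage, excitation 355 nm, emission 460 nm; buffer or medium: Tris-HCl pH 7.4 plus ovalbumin, ATP-MgCl2, DTT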
RanGTP-Impb inh – disruptors of Ran-importin-beta complex formation – biochemical, FRET, CFP-Ran, YFP-importin-beta, homogeneous, primary screen. cell-free CFP-Ran/YFP-importin-beta FRET ratio. inhibition, % (concentration not given with the values). hit rate 1.1% among 300,000;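 active = most replicates above 15%; inconclusive = exactly half above 15%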;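 also: 0% = DMSO wells and 100% = Ran loaded with GDP instead of GTP; wells of about 40 µL received 100 nL stock; the first replicate is given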
Ecoli growth – blocks Escherichia coli growth; hit rate 0.21% among 330,000; OD600, 23 h; stronger effect = lower value; AID 1053175; OD600 absorbance (test concentration not listed);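 active = OD600 absorbance below the run mean of sample wells minus 3.6 SD, in any replicate, cut at about 0.56 in these data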;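 also: stock transfer was 300 nL into about 60 µL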
Vif A3G – inhibitors of Vif binding to APOBEC3G peptide, primary screen, biochemical, TR-FRET, GST-Vif 1-94, biotin-A3G peptide, dose response retest (AID 1117319); TR-FRET GST-Vif / biotin-A3G peptide binding; higher % means a stronger effect; test concentration not given here; strong numbers were not always called active; one-dose inhibition, %; IC50 in µM for titrated hits; hit rate 0.57% among 260,000;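 active = above the screen mean plus three standard deviations and confirmed in dose response; inconclusive = results disagree or hit not tested in dose response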;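 also: Vif residues 1-94 fused to GST binding biotinylated APOBEC3G peptide 110-148; 0% = full assay without inhibitor and 100% = GST in place of GST-Vif; retest series ran down from 100 µM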
HNF4A DNA FP – change in binding of human HNF4 alpha to DNA; HNF4a-FITC DNA binding, fluorescence polarization, 1 h; activity change, % at 10 µM; hit rate 0.3% among 360,000; in the data active = activity change above about 30%, passing the limit was not always enough;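 also: controls were the assay level and a saturating level of protein; the project sought stronger binding though the title names inhibitors; some compounds called inactive have numbers as strong as hits; positive values seem to mean higher polarization but the record does not say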
AF4-AF9 inh – inhibitors of human MLL-AF4/AF9 interaction. P42568. AlphaScreen, biotin-AF4 peptide binding to FLAG-AF9. inhibition, % at 10 µM. hit rate 0.47% among 350,000. AID 651704;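 active = every replicate reaching a set inhibition limit, whatever the replicate mean, cut at about 25% in these data; inconclusive = mean inhibition reaches that limit but some replicates miss it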;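 also: 0% = plate neutral control median and 100% = total signal loss; the record names both 10 and 1 µM as test concentration; the first replicate is given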
Target sequence (P42568 whole entry, looked up): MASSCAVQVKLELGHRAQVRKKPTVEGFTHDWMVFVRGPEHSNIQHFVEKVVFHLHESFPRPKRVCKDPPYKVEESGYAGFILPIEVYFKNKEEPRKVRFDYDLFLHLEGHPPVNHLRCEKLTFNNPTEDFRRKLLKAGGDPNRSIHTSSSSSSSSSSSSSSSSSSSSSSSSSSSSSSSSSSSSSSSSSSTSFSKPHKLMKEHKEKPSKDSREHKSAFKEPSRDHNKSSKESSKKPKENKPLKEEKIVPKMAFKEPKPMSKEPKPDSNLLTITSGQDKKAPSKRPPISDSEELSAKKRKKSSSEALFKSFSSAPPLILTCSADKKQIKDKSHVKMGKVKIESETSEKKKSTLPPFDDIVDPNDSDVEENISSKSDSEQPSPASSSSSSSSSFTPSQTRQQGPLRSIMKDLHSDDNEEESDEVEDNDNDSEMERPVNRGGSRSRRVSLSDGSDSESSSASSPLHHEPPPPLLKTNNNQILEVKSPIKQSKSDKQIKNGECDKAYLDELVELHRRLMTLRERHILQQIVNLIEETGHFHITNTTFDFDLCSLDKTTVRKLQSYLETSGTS
FGF22 binding – shifts melting point of recombinant human FGF22. Q9HCT0. hit rate 1.5% among 340,000. recombinant FGF22 thermal shift, SYPRO orange fluorescence; percent of sucrose octasulfate shift, DMSO zero. calls only at 9.99 µM;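 active = melting point raised past a set limit in the mean and every replicate; inconclusive = no clear call; three in four hits are not shown here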
Target sequence (Q9HCT0 whole entry, looked up): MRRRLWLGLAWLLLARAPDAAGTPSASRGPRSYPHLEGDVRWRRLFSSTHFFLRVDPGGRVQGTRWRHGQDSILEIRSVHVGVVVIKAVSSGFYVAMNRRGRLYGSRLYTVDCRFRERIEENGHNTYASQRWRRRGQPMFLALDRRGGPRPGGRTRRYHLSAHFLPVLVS
* = called active by the depositor; i = inactive; ? = inconclusive; · = not tested or not shown; + = active, no number; & = joins results of further samples.

Values run as follows: UCH37 inh	RanGTP-Impb inh	Ecoli growth	Vif A3G	HNF4A DNA FP	AF4-AF9 inh	FGF22 binding
- c1ccc2c(c1)nc(NCCN1CCOCC1)c1nncn12
 : 6.3	?	0.75	6%	2.0	-1.6	i
- Cn1c(=O)[nH]c(=O)c2c1nc(N1CCOCC1)n2CCN1CCOCC1
 : -4.9	4.7	0.76	?	4.2	·	·
- Cc1ccc(NC(=O)CSc2nnc(-c3ccccn3)n2N)c(Br)c1
 : 5.3	4.1	0.69	-6%	-3.0	-2.3	i
- NC(=O)c1ccccc1NC(=O)COc1ccc2c(c1)OCO2
 : 4.3	-0.9	0.65	·	2.1	?	i
- COc1ccc(Cl)cc1C=CC=NNC(=O)c1ccncc1
 : ·	·	·	0%	-2.8	-1.2	i
- O=S(=O)(c1ccc(F)cc1)n1ccc(-c2cccc(OCc3ccc(Cl)cc3Cl)c2)n1
 : -0.1	0.2	0.71	-9%	0.3	·	·
- COc1ccc(C(C(=O)NCC2CCCO2)N(Cc2ccc(F)cc2)C(=O)CNC(=O)c2ccco2)cc1OC (stereo unspecified)
 : -0.1	1.9	0.62	6%	-1.1	1.7	i
- COC(=O)C1C(O)=C(C(C)=Nc2cccc3ccccc23)C(=O)CC1(C)C (stereo unspecified)
 : -1.5	5.6	0.61	?	-1.4	-0.3	i
- O=C1CC(c2ccc(Cl)c(Cl)c2)CC(O)=C1C=NCCN1CCNCC1 (stereo unspecified)
 : 1.2	7.6	0.66	-3%	·	·	·
- COc1ccccc1CNC(=O)c1ccc(C)s1
 : -1.1	-0.3	0.7	-1%	2.3	-2.3	·
- CC1CN(S(=O)(=O)Cc2ccccc2)CC(C)O1 (stereo unspecified)
 : 5.6	?	0.67	15%	3.8	·	·
- C=CCN(CC=C)C(=S)NC(=O)c1ccc([N+](=O)[O-])cc1
 : 4.7	3.7	0.68	67µM*	1.6	·	·
- O=C(/C=C/c1cccs1)NC1CCS(=O)(=O)C1 (stereo unspecified)
 : 6.5	-3.4	0.67	?	-0.4	-2.2	·
- CCc1cc2c(=O)n(-c3ccccc3)c(SCC(N)=O)nc2s1
 : 1.2	-0.2	0.66	·	2.2	-2.9	i
- COCCCN1C(=O)C(CC(=O)NC(c2ccccc2)c2ccccc2)CC(C(=O)N2CCCCCC2)=C1C (stereo unspecified)
 : ·	·	·	·	0.2	-1.6	i
- CC(C)CN(C(=O)COC(=O)c1ccc(C#N)cc1)C1CCS(=O)(=O)C1 (stereo unspecified)
 : 3.7	·	0.69	4%	2.0	-0.3	i
- C/C=C/c1cc(CN2CCN(c3ccc(OC)cc3)CC2)c(O)c(OC)c1
 : 0.2	?	0.65	14%	-3.6	19	i
- COc1cc(C(=O)N2CCN(c3ncnc4sc(C)c(C)c34)CC2)cc(OC)c1OC
 : 5.8	2.2	0.67	-4%&-10%	1.7	·	·
- Cc1nnsc1C(=O)NNC(=O)c1cccc2ccccc12
 : 8.9	3.6	0.66	-2%	-1.7	-0.9	i
- CC1(C)OC2C(CO)OC(n3cnc4c(=S)nc[nH]c43)C2O1 (stereo unspecified)
 : -0.2	0.6	0.68	?	0.2	-4.2	i
- O=C(CCCN1C(=O)c2ccccc2C1=O)Nc1ccc2c(c1)OCCO2
 : 0.7	2.6	0.72	-11%	1.8	-2.6	i
- Cc1ccc(-n2nc(C)c(NC(=O)CCl)c2C)cc1C
 : 1.6	0.6	0.71	?	-1.3	·	·
- Cc1ccc(-n2nc(C(=O)NCc3ccc(C)o3)c3c4ccccc4n(C)c3c2=O)cc1
 : -32	-4.9	0.7	-6%	2.0	·	·
- COc1cccc2cc(C(C)OC(=O)Nc3ccc(C)cc3)oc12 (stereo unspecified)
 : 0.7	2.1	0.66	2%	-2.3	-7.7	i
- O=[N+]([O-])c1ccc(Cl)cc1N1CCOCC1
 : 1.5	-0.6	0.66	2%	-2.4	-2.0	·
- Cc1cc(C)cc(NC(=S)NCCCO)c1
 : -1.1	-2.5	0.69	-4%	3.2	·	i
- O=C(CCN1C(=O)c2ccccc2C1=O)CN1CCOCC1
 : 3.9	2.8	0.71	-10%	-1.1	-0.6	·
- Cc1cc2c(cc1S(=O)(=O)Nc1cccc(C)c1C)n(C)c(=O)c(=O)n2C
 : 3.8	0.7	0.77	·	4.1	-0.6	i
- CC1=NN(C(=O)c2ccccc2C)C(O)(c2ccc(Cl)cc2)C1 (stereo unspecified)
 : 3.9	0.7	0.69	·	-1.1	0.7	i
- Cc1noc(C)c1C(=O)Nc1ccc(S(=O)(=O)N2CCC(C)CC2)cc1
 : -0.2	·	0.67	·	2.3	-0.8	i
- CC1CCN(CC(=O)n2c3c(c4ccccc42)CCCC3)CC1
 : 1.4	-0.4	0.67	2%	0.4	·	·
- O=C(O)CC(CC(=O)O)c1ccsc1
 : 0.7	·	0.66	·	0.8	-0.8	i
- CC(=O)NC(CCC(=O)O)C(=O)O (stereo unspecified)
 : ·	·	·	·	1.6	-1.5	i
- Oc1cccc(/C=C/c2ccc3cccc(O)c3n2)c1
 : 0.7	3.6	0.62	17%	1.3	-1.0	i
- CC(=O)Nc1ccc(S(=O)(=O)Nc2nccc(/C=C/c3ccccc3F)n2)cc1
 : 0.8	-1.0	0.73	30%	6.5	-0.8	i
- O=C(NCCN1CCCCC1)Nc1ccc([N+](=O)[O-])cc1
 : 6.5	1.0	0.66	·	0.1	1.0	i
- Nc1ncnc2c1ccn2[C@H]1CN(Cc2ccc(Cl)cc2)C[C@@H](CO)O1
 : ·	·	·	·	6.0	1.0	i
- Cn1c(=NC(=O)CSCC(=O)N2CCCCC2)sc2ccccc21
 : 1.8	5.1	0.75	-2%	-2.3	·	·
- CC(C)OC(=O)CC1C(=O)NCCN1C(=S)NC(=O)c1ccc(F)cc1 (stereo unspecified)
 : 3.2	-3.5	0.7	-5%	0.4	-1.7	i
- CC(=O)c1ccc(OCCNS(=O)(=O)c2ccc(-n3cnnn3)c(C)c2)cc1
 : 2.9	3.5	0.61	·	0.3	-2.3	i
- Cc1cc(C)cc(N(C(=O)Cn2nnc(-c3ccccc3)n2)C(C(=O)NC2CCCCC2)c2ccccn2)c1 (stereo unspecified)
 : 0.1	4.6	0.69	·	0.7	·	·
- COC(=O)c1cc2c(s1)-c1cc(F)ccc1OC2
 : -244	5.7	0.73	·	1.1	2.3	i
- O=C(c1cc(-c2ccccc2)nc2ccccc12)N1CCCc2ccccc21
 : 2.0	5.0	0.74	-6%	-1.1	·	·
- NC(=O)c1ccccc1OCC(=O)N1CCc2ccccc2C1
 : 7.1	0.3	0.64	·	7.0	-13	i
- c1cncc(CNc2c3c(nc4nnnn24)CCCC3)c1
 : 1.7	0.7	0.71	0%	0.2	·	·
- CCCC1CCC(C(=O)Nn2c(C)nc3ccccc3c2=O)CC1 (stereo unspecified)
 : 0.0	-2.4	0.66	16%	-1.0	-45	i
- CCC(=O)N1CCN(c2ccccc2NC(=O)c2cccs2)CC1
 : -0.4	0.0	0.68	6%	2.0	2.2	i
- COc1cccc(C(=O)CSc2nnc(CNS(=O)(=O)c3ccc(C)cc3)n2C)c1
 : -1.7	-2.3	0.7	1%	7.3	·	·
- CCC(=O)c1ccc(OCC(=O)N2CCN(S(=O)(=O)c3ccc(Cl)s3)CC2)cc1
 : 1.5	·	0.69	1%	5.7	-1.8	i
- O=C(O)C1CCN(S(=O)(=O)Cc2ccccc2)CC1
 : 2.4	1.8	0.7	-3%	3.2	-2.0	+
- O=C(CSc1nnc2sc3ccccc3n12)N1CCN(c2ccccc2)CC1
 : 1.1	-2.5	0.69	0%	1.1	0.8	i
- CCOC(=O)c1c(S(=O)(=O)N2CCN(C3CCCCC3)CC2)c(C)n(C)c1C
 : -0.1	1.1	0.68	·	0.8	4.2	i
- Cc1ccc(-c2nc3c(Cl)cc(C(F)(F)F)cn3c2Cc2ccccc2)cc1
 : ·	·	·	·	-0.5	3.6	i
- CCN(CC)C(=O)C1=C(C)N(Cc2ccc(C(C)(C)C)cc2)C(=O)C(CC(=O)NC2CC2)C1 (stereo unspecified)
 : ·	·	·	-7%	-0.7	-8.2	i
- O=C1c2cccc3cccc(c23)C(=O)N1CC1CCN(S(=O)(=O)c2ccc(F)cc2)CC1
 : -111	2.2	0.73	·	0.1	-13	i
- Cc1c(N=Nc2c(-c3ccc([N+](=O)[O-])cc3)[nH]n(C(N)=S)c2=O)cccc1[N+](=O)[O-]
 : 8.2	·	0.69	3%	-28	2.0	i
- Cc1ccccc1S(=O)(=O)N(CC(O)CN1CCCCC1)c1ccccc1 (stereo unspecified)
 : 2.8	0.5	0.73	·	-1.4	0.4	i
- Cc1ccc(NC(=O)CC2C(=O)NCCN2C(=O)c2ccc(F)cc2)cc1 (stereo unspecified)
 : -0.8	-4.3	0.69	-2%	0.0	-3.0	i
- Nc1nc(SCc2ccccc2)c2ncn(C3OC(CO)C(O)C3O)c2n1 (stereo unspecified)
 : 6.6	·	0.67	-7%	-4.3	-66	i
- CCn1cnc2sc(C(=O)O)c(C)c2c1=O
 : 4.2	2.9	0.72	4%	-1.3	·	·

Other results follow.
Values run as follows: UCH37 inh	RanGTP-Impb inh	Ecoli growth	Vif A3G	HNF4A DNA FP	AF4-AF9 inh	FGF22 binding
- CC(NC(=O)CN1CCN(Cc2ccc(Cl)cc2)C1=O)c1ccc2c(c1)OCCO2 (stereo unspecified)
 : 4.6	-1.7	0.8	5%	0.4	-3.4	i
- CCOC(=O)N1CCN(S(=O)(=O)c2ccc(C(=O)Nc3sc4c(c3C(N)=O)CC(C)(C)NC4(C)C)cc2)CC1
 : -56	1.4	0.69	-2%	1.6	2.1	i
- CC(=O)Nc1ccc(N/C=C/C(=O)c2ccc(Br)cc2)cc1
 : -3.1	-3.8	0.68	·	11	·	·
- CCOCCCNC(=S)NCCc1ccccc1
 : 1.6	0.5	0.67	7%	-0.8	·	·
- COc1ccc(NC(C)=O)cc1NC(=O)CCn1c(=O)sc2ccccc21
 : 0.8	-2.5	0.66	0%	-1.4	5.7	i
- C/C(CC(=O)NCc1ccco1)=N\NC(=O)CC#N
 : ·	-0.4	·	-2%	0.9	-1.7	i
- CNC(=S)SCCOc1ccc(C)cc1
 : 0.4	1.6	0.68	·	-2.5	·	·
- O=C(CN1CCN(Cc2cccc(Cl)c2)C1=O)NCc1cccs1
 : 3.5	4.3	0.66	-2%	-1.6	5.4	i
- O=C(NCCc1ccccc1)c1cnn2c(C(F)F)cc(C3CC3)nc12
 : -7.6	1.9	0.73	4%	-0.1	·	·
- O=C(c1cc(Br)ccc1Cl)N1CCN(c2ccc(N3CCOCC3)nn2)CC1
 : -235	5.8	0.69	·	-4.3	-5.4	i
- O=S(=O)(Nc1cc(Cl)ccc1-n1cncn1)c1cc(Br)ccc1Br
 : 4.5	·	0.69	·	3.1	2.7	i
- COc1cc(C(=O)NNC(=O)C2CCCC2)cc(OC)c1OC
 : 0.1	1.1	0.69	·	-0.8	0.7	i
- O=C(O)c1ccc(CSc2nc3c(c(=O)[nH]2)CCC3)cc1
 : ·	·	·	·	1.6	-1.5	i
- Cc1cc(O)c(C(C)C)cc1NC(=O)c1ccc(Cl)cc1
 : 0.5	-0.4	0.76	-2%	2.2	·	·
- COc1cc2sc(C)nc2c2ccccc12
 : 2.0	4.4	0.67	·	2.1	-8.1	i
- Cc1ccc(C2NC(c3ccc(C)cc3)C([N+](=O)[O-])C(C)(C)C2[N+](=O)[O-])cc1 (stereo unspecified)
 : -0.8	-0.6	0.72	·	-0.9	0.5	i

Limited to UCH37 inh and Vif A3G, for 2 of the compounds above:
SMILES	UCH37 inh	Vif A3G
COc1cc2sc(C)nc2c2ccccc12	2.0	·
Cc1ccc(C2NC(c3ccc(C)cc3)C([N+](=O)[O-])C(C)(C)C2[N+](=O)[O-])cc1 (stereo unspecified)	-0.8	·

An excerpt; count on the stated rates, not on these rows.
